Six1-Eya2 blk: inhibitors of human Six1/Eya2 interaction. activity change, % (test concentration not listed). AlphaScreen GST-Six1/His-Eya2 binding, biochemical; stronger effect = lower value; control for the full effect not named in the record. 360,000 compounds, 0.56% hits. Q15475+O00167; in the data active = activity change below about -65%; inconclusive = about -30% to -65%; inactive = above about -30%; note: % is set by controls: 0 for no effect and ±100 for the full control effect
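AlphaScreen with GST-Six1 and His-Eya2 (5X mix: 250 nM and 500 nM), glutathione donor and nickel acceptor beads; buffer 50 mM Tris pH 8.0, 300 mM NaCl, 1 mM TCEP; 1 h at 37 C in the dark.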
D2 ag: human D2 receptor agonism in beta-arrestin assay; DiscoveRx PathHunter D2 beta-arrestin, luminescence, 90 min; 100% = 57 uM dopamine signal; activation, % (no concentration beside the values); 360,000 compounds, 0.084% hits; AID 624465; in the data active = activation above about 40%; inconclusive = about 15% to 40%; inactive = below about 15%; note: compound concentration not given in the record; the text of the record calls up to 30% inactive
Target sequence (P14416 whole entry, looked up): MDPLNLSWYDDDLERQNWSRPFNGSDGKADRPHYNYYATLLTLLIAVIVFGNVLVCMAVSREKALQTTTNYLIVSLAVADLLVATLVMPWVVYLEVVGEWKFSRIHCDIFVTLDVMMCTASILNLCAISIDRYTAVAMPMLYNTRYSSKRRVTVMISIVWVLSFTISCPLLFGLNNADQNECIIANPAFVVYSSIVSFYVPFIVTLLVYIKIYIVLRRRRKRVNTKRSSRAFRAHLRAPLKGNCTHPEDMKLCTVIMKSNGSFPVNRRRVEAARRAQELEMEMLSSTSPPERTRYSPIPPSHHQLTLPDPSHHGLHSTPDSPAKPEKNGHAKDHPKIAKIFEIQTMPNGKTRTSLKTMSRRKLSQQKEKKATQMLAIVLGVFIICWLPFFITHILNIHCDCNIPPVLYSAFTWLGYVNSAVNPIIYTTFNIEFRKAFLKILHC
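DiscoveRx PathHunter D2 beta-arrestin cells (2,100/well) attached overnight, then compound-stimulated 90 min at 37 C in HBSS/10 mM HEPES/0.1% Tween-20 buffer; beta-galactosidase complementation read by luminescence after 1 h at ambient temperature. Dopamine 57 uM final (EC100) as control.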
D2 potentiator: human D2 receptor positive allosteric modulation; potentiation, % (concentration not given with the values); 360,000 compounds, 0.23% hits; P14416; DiscoveRx D2 beta-arrestin cells, luminescence, 90 min; 100% = 57 uM dopamine signal; active = potentiation of 50% or more; inconclusive = 30% to 50%; inactive = 30% or less;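 note: tested on top of an EC20 dose of dopamine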
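PathHunter beta-arrestin assay in DiscoveRx D2 cells. Compounds were added with an EC20 of dopamine (50 nM final) for 90 min at 37 deg C. Luminescence was read 1 h after detection reagent, with 57 uM dopamine as the EC100 control.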
TRPML1 inh: blocks the human TRPML1 channel; Q9GZU1; TRPML1-inducible cells, Ca2+ dye fluorescence, FDSS; stronger effect = lower value; inhibition of EC80 agonist-evoked calcium signal; activity change, negative = inhibition, % (no concentration beside the values); 390,000 compounds, 0.02% hits; AID 624415; in the data active means activity change below about -50%; inconclusive means about -30% to -50%; inactive means above about -30%;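 note: stimulus is agonist 54-4 at its EC80 concentration; % is set by controls: 0 for no effect and ±100 for the full control effect; compound concentration not given in the record; the text of the record puts the active cut at -80%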
Target sequence (Q9GZU1 whole entry, looked up): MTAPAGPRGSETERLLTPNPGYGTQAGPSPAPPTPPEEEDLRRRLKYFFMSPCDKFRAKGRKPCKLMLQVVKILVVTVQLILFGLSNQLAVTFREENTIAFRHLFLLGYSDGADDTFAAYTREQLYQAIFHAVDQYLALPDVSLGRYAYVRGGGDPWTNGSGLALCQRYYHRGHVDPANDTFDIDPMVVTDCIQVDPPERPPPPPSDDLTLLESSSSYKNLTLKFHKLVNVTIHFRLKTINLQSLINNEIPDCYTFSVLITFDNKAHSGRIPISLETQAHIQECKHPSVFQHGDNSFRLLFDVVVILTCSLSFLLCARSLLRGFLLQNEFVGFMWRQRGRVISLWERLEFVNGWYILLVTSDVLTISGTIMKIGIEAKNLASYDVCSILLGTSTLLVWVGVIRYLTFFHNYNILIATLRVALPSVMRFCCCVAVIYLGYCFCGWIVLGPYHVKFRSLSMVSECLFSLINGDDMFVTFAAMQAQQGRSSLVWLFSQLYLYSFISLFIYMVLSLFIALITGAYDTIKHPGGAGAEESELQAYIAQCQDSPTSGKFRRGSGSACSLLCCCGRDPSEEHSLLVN
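TRPML1-DL cells, Tet-induced overnight (~16 h, 37 °C) at 1,500 cells/well, were loaded with Ca8 no-wash dye plus quencher for 45-90 min at room temperature. Compounds were pinned during FDSS kinetic reading; agonist 54-4 at EC80 (4 uM final) then added.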
PINK1 expr mod: modulators of PINK1 expression; PINK1 immunofluorescence, high-content cytometry, 24 h; Potency, µM (titrated, usually from 76.6 µM), without a hit: at the top dose activation (PINK1 increase), actives largely listed as activators; 410,000 compounds, 0.2% hits; AID 624263; active = well fitted activation curve with a large enough effect; inconclusive = small, poorly fitted or top-dose-only effect; inactive = flat fitted curve, though single readings scatter; cell line not stated here;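 note: potency is the fitted concentration of half-maximal effect; % of control where 0% means no effect; nearly all actives have a fitted effect of over 65% in size; a mitochondrial uncoupler was the plate control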
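Readout is PINK1 immunofluorescence, quantified alongside mitochondrial, cell and nuclear markers by laser-scanning microplate cytometry. Cells from a stable line were exposed to compound titrations (5 concentrations) for 24 hours, with CCCP controls.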
TRPML1 ag: activates the human TRPML1 channel; TRPML1-expressing cells, Ca2+ dye fluorescence, FDSS; host cell line not named in the record; reference of the full effect not given here; AID 624414; 410,000 compounds, 0.12% hits; activation, % (no concentration beside the values); in the data active = activation above about 50%; inconclusive = about 30% to 50%; inactive = below about 30%; note: 0% is about no effect; the text of the record puts the active cut at 80%
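Kinetic FDSS Ca2+ read in Tet-induced TRPML1-DL cells (ABD Ca8 dye plus quencher, 45-90 min RT loading): baseline, then compound, then 110 s agonist window; EC80 agonist 54-4 at 4uM final added afterwards for a 110 s antagonist window.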
An asterisk follows results filed as active; ? = inconclusive; . = not tested or not shown; & = joins results of further samples; [ ] = another dose, or the depositor's remark.

SMILES	Six1-Eya2 blk	D2 ag	D2 potentiator	TRPML1 inh	PINK1 expr mod	TRPML1 ag
COc1ccc(CCNC(=O)CCNC(=O)N2CC(=O)Nc3ccccc32)cc1OC	1	-3.6	-6	18	0.0%	-0.6
Cc1cc(C)n2nc(SCc3cc(=O)oc4ccc5ccccc5c34)nc2n1	-4	-0.6	1	1	12%	0.1
CC1=Nc2ccccc2/C1=C/c1c(N)n2c(S(=O)(=O)CC(C)C)nsc2nc1=O	-26	-5.7	-5	2	-1.5%	1.5
Cc1ccc(/C=N/NC(=O)CNC(=O)c2ccc(C)c([N+](=O)[O-])c2)o1	2	1.7	-17	0	-2.4%	0.5
COCCCNC(=O)CSc1nc2cc(C(=O)NCCOC)ccc2c(=O)n1Cc1ccc2c(c1)OCO2	-2	-1.7	-8	12	1.0%	3.8
Cc1cccc(-n2nnnc2SC(C)C(=O)NCCC2=CCCCC2)c1 (stereo unspecified)	6	-1.9	14	-11	-1.3%	-0.7
CCOc1ccc(C(C)=O)cc1CN1C(=O)NC2(CCCCC2C)C1=O (stereo unspecified)	1	-0.2	-13	0	-0.7%	1.4
CC1=C(n2nnc([N+](=O)[O-])n2)C(c2cccnc2)C(C#N)=C(N)O1 (stereo unspecified)	1	?	110*	14	1.7%	0.9
COc1ccc(OCC(=O)N2CCOCC2)cc1	0	-1.2	-3	13	2.6%[38.3 µM]	0.7
Cc1cc(-n2c(C)cc(C(=O)CSc3nc(N)cc(=O)[nH]3)c2C)no1	-4	6.1	-8	17	0.8%	0.2
CC1CCN(c2c(NCC3CCC(C(=O)N4CCCCC4)CC3)c(=O)c2=O)CC1 (stereo unspecified)	8	-3.3	-13	-13	0.5%	-0.3
Cc1cnc(C(=O)Nc2cccc3ncccc23)cn1	-3	0.9	25	-13	-1.2%	0.4
CC(C)(C)C(=O)Nc1ccc(Oc2ccc3c(c2)C(=O)N(c2ccc(O)cc2)C3=O)cc1	1	1.8	6	32	-1.3%[38.3 µM]	-0.1
CCCN1CCC(NC(=O)Nc2ccc(F)cc2F)CC1	23	-0.7	0	-5	.	0.5
CC1CCc2c(sc(NC(=O)c3ccccc3)c2C(=O)Nc2ccccc2)C1 (stereo unspecified)	.	.	.	2	-0.6%	-1.1
CC(C)N(C)C(=O)c1ccc(OC2CCN(CCc3ccccc3)CC2)cc1	-3	-3.6	-20	-1	-0.1%	-0.2
COc1cc(C)nc(OCCNC(=O)COc2ccc(Cl)cc2C)n1	3	-2.1	-8	14	1.9%	1.9
CCOc1ccc(NC(=O)C2CCCN(c3nnc(-n4c(C)ccc4C)s3)C2)cc1 (stereo unspecified)	.	.	.	-3	1.2%	0.0
NNc1nc(-c2ccccc2)c2cc(Br)ccc2n1	-4	-3.3	-22	-9	1.2%	2.1
Cc1ccc(C)c(NC(=O)Cn2c(=O)n(-c3ccc(CC(=O)NCC4CCCO4)cc3)c(=O)c3ccccc32)c1 (stereo unspecified)	.	.	.	21	1.7%	-0.6
O=C(NCc1cccs1)c1nn(-c2ccccc2Cl)nc1CO	.	.	.	18	-0.5%	2.0
O=C(CCNC(=O)c1ccccc1Cl)Nc1cccc(S(=O)(=O)N2CCCCC2)c1	-6	-3.8	18	11	0.4%	-0.7
CCC(C)NC(=S)N(CCc1ccccc1)Cc1cc2cc(OC)c(OC)cc2[nH]c1=O (stereo unspecified)	-19	-4.9	-24	11	-0.7%	3.2
CCCCCn1c(SCC(=O)c2ccccc2)nc2cc(C(=O)NCC3CCCO3)ccc2c1=O (stereo unspecified)	4	-4.1	-2	.	3.8%	.
O=C(Nc1ccc2c(c1)OCO2)Nc1ccc(F)cc1F	-1	0.1	-7	-5	5.5%	0.4
O=C(NCc1ccccc1)N1CCc2c(sc3c2CCCC3)C1c1ccccc1 (stereo unspecified)	.	.	.	16	4.9%	2.6
CC(C)CNC(=O)/C=C/c1cccs1	1	-3.4	-11	12	10%	-0.3
Cc1cc(Sc2ccc([N+](=O)[O-])cn2)ccc1Br	-9	-0.2	1	16	8.9%	0.8
C=CCN1C(=O)c2ccc(C(=O)N(C)CC(=O)Nc3c(C)cccc3C)cc2C1=O	13	-3.5	3	-11	?	0.4
O=C(N/N=C/c1c(Nc2cccc(C(F)(F)F)c2)nc2ccccn2c1=O)c1ccccc1[N+](=O)[O-]	2	-3.4	-9	2	0.5%	-1.1
COC(=O)C(NC(C)=O)(Nc1nc2ccc(S(C)(=O)=O)cc2s1)C(F)(F)F (stereo unspecified)	8	-2.3	-16	-1	0.1%	0.6
O=C(CSc1nc(-c2ccccc2)[nH]c1-c1ccccc1)Nc1ccc2c(c1)OCCO2	.	.	.	-26	0.0%	1.6
COc1cccc(C2c3cc4c(cc3OC(N3CCCC3)C2C)OCO4)c1O (stereo unspecified)	-17	1.1	-2	13	6.6%	1.3
O=C(CN1CCN(S(=O)(=O)c2ccc(F)cc2)CC1)Nc1ccnn1C1CCCC1	6	-2.0	-8	9	4.9%	1.2
CCCS(=O)(=O)N1CCC(C(=O)N2CCc3ccccc3C2)CC1	1	0.0	10	-24	-0.7%	-0.6
N=c1c(C(=O)NCC2CCCO2)cc2c(=O)n3ccccc3nc2n1C1CCCCC1 (stereo unspecified)	0	-2.1	-5	13	0.4%	0.3

Ordered by value in Six1-Eya2 blk (ascending): four of the compounds above.
Structure | Six1-Eya2 blk | D2 ag | D2 potentiator | TRPML1 inh | PINK1 expr mod
Cc1cc(Sc2ccc([N+](=O)[O-])cn2)ccc1Br | -9 | -0.2 | 1 | 16 | 8.9%
O=C(Nc1ccc2c(c1)OCO2)Nc1ccc(F)cc1F | -1 | 0.1 | -7 | -5 | 5.5%
CCCS(=O)(=O)N1CCC(C(=O)N2CCc3ccccc3C2)CC1 | 1 | 0.0 | 10 | -24 | -0.7%
O=C(CN1CCN(S(=O)(=O)c2ccc(F)cc2)CC1)Nc1ccnn1C1CCCC1 | 6 | -2.0 | -8 | 9 | 4.9%

3 structures already listed, arranged by length of the SMILES, smallest number first.
SMILES	Six1-Eya2 blk	D2 ag	D2 potentiator	TRPML1 inh	PINK1 expr mod	TRPML1 ag
Cc1cc(Sc2ccc([N+](=O)[O-])cn2)ccc1Br	-9	-0.2	1	16	8.9%	0.8
CCCS(=O)(=O)N1CCC(C(=O)N2CCc3ccccc3C2)CC1	1	0.0	10	-24	-0.7%	-0.6
N=c1c(C(=O)NCC2CCCO2)cc2c(=O)n3ccccc3nc2n1C1CCCCC1 (stereo unspecified)	0	-2.1	-5	13	0.4%	0.3

Additional entries follow:
SMILES	Six1-Eya2 blk	D2 ag	D2 potentiator	TRPML1 inh	PINK1 expr mod	TRPML1 ag
COc1ccc(Cl)cc1NC(=O)NCc1ccccn1	-11	-8.8	-41	-8	0.4%	0.6
C=CCOC(=O)C1=C[C@H](C2CCCCC2)C[C@H](OCc2ccc(CO)cc2)O1	0	0.8	-33	-6	10%	-1.0
O=C(Oc1c(Cl)cc(Cl)c2ccccc12)N1CCCC1	6	0.1	0	-7	8.2%	17
COc1ccc(C2CC(=O)c3cc(-c4nc(-c5ccc(C)cc5)cs4)c(=O)[nH]c3C2)cc1 (stereo unspecified)	.	.	.	-7	8.1%	0.0
COc1cc(-c2noc(C)c2C(=O)NCC[C@@H]2CCCN2C)cc(OC)c1OC	23	-2.9	-2	0	-0.1%	0.3
COc1ccc(CCC(=O)Nc2ccc(S(=O)(=O)Nc3nccc(C)n3)cc2)cc1	1	3.3	-4	3	-2.3%	0.7
Cc1ccc(-c2n[nH]c(=S)n2-c2ccccc2)cc1	-2	-1.0	-11	-4	-1.3%&0.6%	0.6&-0.4
COc1cccc(C2c3[nH]c4ccccc4c3CCN2CCCn2cccn2)c1 (stereo unspecified)	-15	-4.7	-5	21	-0.1%	-0.2
Cc1ccc(CN(Cc2ccco2)C(=O)c2oc3c(C)c(C)ccc3c2C)cc1	.	.	.	0	5.1%	1.4
CCOC(=O)c1oc2ccccc2c1COC(=O)CNC(=O)c1ccccc1F	-4	-0.5	-6	9	2.5%	-0.5
CCOC(=O)c1nnc2c(-c3ccc(Cl)cc3)c(C)nn2c1N	.	.	.	16	0.9%	1.9
COc1ccccc1C(=O)N/C(=C\c1cn(S(=O)(=O)N(C)C)c2ccccc12)C(=O)N1CCOCC1	2	0.1	-9	15	4.9%	0.0
COC(=O)CCC(=O)OC1(C)C(=O)C=C2C=C(C3CC3)N(CCN3CCOCC3)C=C2C1=O (stereo unspecified)	5	11	18	-12	1.5%	0.3
CCCC(C)c1nnc(NC(=O)CCS(=O)(=O)Cc2ccccc2)s1 (stereo unspecified)	-3	-7.6	-7	2	1.8%	-1.3
COc1ccc(/C=C/C(=O)Nc2c(C(=O)O)[nH]c3ccccc23)cc1OC	-3	-8.4	-8	.	0.0%	.
COc1ccc(C)cc1NC(=O)c1ccc(S(=O)(=O)N2CCOCC2)cc1	0	5.2	7	-15	16%[38.3 µM]	-0.4
CCn1cc(CN2CCCC(CO)(Cc3cccc(Cl)c3)C2)cn1 (stereo unspecified)	-1	1.1	-6	2	2.2%	0.2
CCc1cccc(C)c1NC(=O)CN1C(=O)c2ccccc2S1(=O)=O	-3	-3.3	-2	54	1.0%	0.1
COC(=O)CC/C(O)=C1\C(=O)CC(C)(C)CC1=NCCc1nc2ccccc2[nH]1	1	-4.3	-12	3	-0.3%	0.7
COc1ccccc1CNC(=O)CN(c1ccccc1OC)S(C)(=O)=O	.	.	.	3	-0.2%	-0.3
Cc1ccc(NC(=O)COc2ccccc2)c(NC(=O)c2ccco2)c1	1	1.9	-2	19	-0.7%	1.0
COc1ccc(C2CC(c3ccc4ccccc4c3)=NN2C(=O)CN2C(=O)CCC2=O)cc1 (stereo unspecified)	-4	-2.5	0	2	-1.0%	0.9
Cn1c(=O)c(=O)n(C)c2cc(S(=O)(=O)N3CCc4ccccc43)ccc21	1	1.1	2	-2	1.0%	0.2
FC(F)(F)c1cccc(OCCN2CCN(Cc3ccccc3)CC2)c1	-15	-1.7	-44	13	0.5%	0.1
Cc1cccc(C)c1NC(=O)CCS(=O)(=O)c1cccc2nsnc12	3	-7.1	-3	-12	1.8%	0.9
Cc1cc(C)n(-c2cccc(F)n2)n1	3	1.9	-1	5	-0.8%	-0.3
O=C(c1cccc(Oc2ccccc2)c1)N1CCOCC1	6	4.7	-2	-3	-0.4%	0.4
C=CCOc1ccccc1C(=O)/C=C1/C(=O)Nc2ccccc21	15	-6.4	-11	-16	-3.8%	0.1
COc1ccc(C(=O)Nc2ccc(NC(=O)c3ccco3)c(Cl)c2)cc1OC	-2	-1.2	-4	35	12%[38.3 µM]	0.8
Nc1nonc1N/N=C/c1c(O)ccc2ccccc12	-1	0.7	-2	-4	3.4%	0.1
Cc1cc(CNC(=O)c2ccc(C)c([N+](=O)[O-])c2)c2ccccc2n1	4	-2.1	1	0	2.1%	-0.3
C=CCNC(=O)c1ccccc1NS(=O)(=O)c1ccc(OC)c(C(=O)N2CCOCC2)c1	10	-4.6	-7	-5	0.5%	0.1
COc1ccc(Nc2nc(N)c([N+](=O)[O-])c(NC3CCCCC3)n2)cc1	?	4.4	-4	6	-3.4%	0.7
Cn1c(=O)c2c(nc(NCCO)n2C)n(C)c1=O	-9	-4.4	-15	3	-1.4%	-0.9
